High-throughput results from PubChem.
PINK1 expr mod: changes PINK1 expression | Potency, µM (series often up to 76.6 µM), inactives show at the highest dose activation (PINK1 increase), hits mostly activators | 0.2% of 410,000 active | AID 624263 | PINK1 immunofluorescence, high-content cytometry, 24 h; active = well fitted activation curve with a large enough effect; inconclusive = small, poorly fitted or top-dose-only effect; inactive = flat fitted curve, though single readings scatter; cell line not stated here;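 further: potency means the concentration at half of the fitted maximal effect; % of control where 0% means no effect; nearly all actives have a fitted effect of over 65% in size; a mitochondrial uncoupler was the plate control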
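A stable cell line was treated with compounds at 5 concentrations for 24 hours, with CCCP as control. PINK1 levels and mitochondrial localization were measured by immunofluorescence with mitochondrial, cell and nuclear markers after fixation, read by laser-scanning cytometry.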
Six1-Eya2 blk: Six1/Eya2 interaction inhibition; AID 651725; AlphaScreen GST-Six1/His-Eya2 binding, biochemical; stronger effect = lower value; control for the full effect not named in the record; activity change, % (concentration not given with the values); 0.56% of 360,000 active; in the data active = activity change below about -65%; inconclusive = about -30% to -65%; inactive = above about -30%; further: on the % scale 0 is the no-effect control and ±100 the full control effect
Target sequence (O00167 whole entry, looked up): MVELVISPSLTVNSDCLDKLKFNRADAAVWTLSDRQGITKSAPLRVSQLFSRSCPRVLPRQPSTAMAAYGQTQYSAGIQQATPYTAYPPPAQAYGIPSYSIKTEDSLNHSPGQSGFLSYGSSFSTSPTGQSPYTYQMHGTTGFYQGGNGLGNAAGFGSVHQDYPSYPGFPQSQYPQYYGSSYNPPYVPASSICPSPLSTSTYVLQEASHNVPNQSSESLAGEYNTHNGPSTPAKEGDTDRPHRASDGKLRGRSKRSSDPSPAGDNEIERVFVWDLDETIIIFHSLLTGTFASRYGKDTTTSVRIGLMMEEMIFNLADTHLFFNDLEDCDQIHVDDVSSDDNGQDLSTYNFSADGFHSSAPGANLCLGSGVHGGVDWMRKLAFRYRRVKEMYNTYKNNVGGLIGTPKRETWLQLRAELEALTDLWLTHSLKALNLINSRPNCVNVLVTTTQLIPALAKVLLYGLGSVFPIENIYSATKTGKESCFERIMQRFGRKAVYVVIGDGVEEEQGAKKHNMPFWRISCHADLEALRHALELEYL
Target sequence (Q15475 whole entry, looked up): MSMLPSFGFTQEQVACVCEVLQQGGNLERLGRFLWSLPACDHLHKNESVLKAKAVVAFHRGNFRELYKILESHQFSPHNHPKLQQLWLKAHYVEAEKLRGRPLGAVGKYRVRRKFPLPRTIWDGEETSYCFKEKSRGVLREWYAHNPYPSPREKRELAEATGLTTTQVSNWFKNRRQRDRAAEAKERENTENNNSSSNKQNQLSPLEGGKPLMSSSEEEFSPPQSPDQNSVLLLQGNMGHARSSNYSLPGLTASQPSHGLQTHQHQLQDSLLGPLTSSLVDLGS
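AlphaScreen with GST-Six1 and His-Eya2 (5X mix: 250 nM and 500 nM), glutathione donor and nickel acceptor beads; buffer 50 mM Tris pH 8.0, 300 mM NaCl, 1 mM TCEP; 1 h at 37 C in the dark.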
CtBP-E1A blk: inhibitors of CtBP/E1A interaction. AID 651724. activity change, % (test concentration not listed). AlphaScreen GST-E1A/His-CtBP binding, 1536-well; stronger effect = lower value; control for the full effect not named in the record. 0.49% of 340,000 active; in the data active means activity change below about -65%; inconclusive means about -30% to -65%; inactive means above about -30%; further: on the % scale 0 is the no-effect control and ±100 the full control effect; compound concentration not given in the record
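GST-E1A and His-tagged CtBP (125 nM each as 5X stock) were preincubated with pin-transferred compound for 2 h at 37 °C in the dark, then glutathione donor and nickel acceptor beads were added for 1 h before AlphaScreen reading.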
D2 PAM: human D2 receptor positive allosteric modulation; P14416; AID 624464; 0.23% of 360,000 active; potentiation, % (test concentration not listed); DiscoveRx D2 beta-arrestin cells, luminescence, 90 min; 100% = 57 uM dopamine signal; active = potentiation of 50% or more; inconclusive = 30% to 50%; inactive = 30% or less;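 further: compound concentration not given in the record; tested on top of an EC20 dose of dopamine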
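PathHunter beta-arrestin assay in DiscoveRx D2 cells. Compounds were added with an EC20 of dopamine (50 nM final) for 90 min at 37 deg C. Luminescence was read 1 h after detection reagent, with 57 uM dopamine as the EC100 control.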
TRPML1 ag: human mucolipin-1 channel agonism. Q9GZU1. TRPML1-expressing cells, Ca2+ dye fluorescence, FDSS; host cell line not named in the record; reference of the full effect not given here. activation, % (no concentration beside the values). 0.12% of 410,000 active. AID 624414; in the data active = activation above about 50%; inconclusive = about 30% to 50%; inactive = below about 30%; further: 0% is about no effect; the text of the record puts the active cut at 80%
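Kinetic FDSS Ca2+ read in Tet-induced TRPML1-DL cells (ABD Ca8 dye plus quencher, 45-90 min RT loading): baseline, then compound, then 110 s agonist window; EC80 agonist 54-4 at 4uM final added afterwards for a 110 s antagonist window.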
D2 ag: activates the human D2 dopamine receptor | P14416 | DiscoveRx PathHunter D2 beta-arrestin, luminescence, 90 min; 100% = 57 uM dopamine signal | activation, % (test concentration not listed) | 0.084% of 360,000 active | AID 624465; in the data active = activation above about 40%; inconclusive = about 15% to 40%; inactive = below about 15%; further: compound concentration not given in the record; the text of the record calls up to 30% inactive
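DiscoveRx PathHunter D2 beta-arrestin cells (2,100/well) attached overnight, then compound-stimulated 90 min at 37 C in HBSS/10 mM HEPES/0.1% Tween-20 buffer; beta-galactosidase complementation read by luminescence after 1 h at ambient temperature. Dopamine 57 uM final (EC100) as control.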
* marks the source's active call; other numbers are inactive results; ? = inconclusive; / = no result given; & = joins results of further samples; [ ] = remark or other dose.

SMILES	PINK1 expr mod	Six1-Eya2 blk	CtBP-E1A blk	D2 PAM	TRPML1 ag	D2 ag
O=C(CN(CCc1ccccc1)S(=O)(=O)c1ccc(Cl)cc1)N/N=C/c1ccc2c(c1)OCO2	?	1	0	-23	2.3	-0.4
COc1cc(O)c(C(CCN2CCCC(C)C2)c2ccc(N(C)C)cc2)c(OC)c1 (stereo unspecified)	1.4%	?	?	-25	-0.2&-0.6	5.6
C=CCNC(=O)NC(=S)c1ccccc1	?	1	1	-12	0.4	-0.9
CC(C)CN(C(=O)COc1ccccc1C(=O)NCc1ccccc1)C1CCS(=O)(=O)C1 (stereo unspecified)	2.2%	2	4	-9	-0.6	-4.0
Cn1ccc2c(-c3cccc4ccccc34)cc3c(c21)C1CCC3C1 (stereo unspecified)	4.8%	5	-16	-8	-0.6	-4.8
CCOC(=O)c1ccc(NC(=O)c2cc(OC)c(OC)c(OC)c2Br)cc1	0.3%	17	2	0	2.0	-3.0
COC(=O)C1=NN(c2ccc(Cl)cc2)C2C(=O)N(c3ccccc3OC)C(=O)C12 (stereo unspecified)	13%	10	-1	15	0.3	-1.3
O=S(=O)(c1ccc(Cl)cc1)N1CCC(c2nc3ccccc3[nH]2)CC1	5.0%	-3	-4	-4	0.5	2.1
CC1(C)C(=O)Nc2ccccc2N1C(=O)CN1C(=O)NC(CCc2ccccc2)C1=O (stereo unspecified)	0.4%	-1	-12	-5	0.4	-4.1
COc1ccccc1C(=O)NC(=O)COC(=O)C1(C)CC1(Cl)Cl (stereo unspecified)	2.4%	12	-3	-3	-0.5	-0.5
Oc1ccc(C2C=C(c3ccc(F)cc3)Nc3ncnn32)cc1 (stereo unspecified)	-0.6%	2	-12	18	17	?
CN(C(=O)c1ccno1)c1nnc(-c2cnccn2)s1	-1.4%	-5	2	11	-0.8	-3.5
O=C(NC(c1ccc(Cl)cc1)c1cnccn1)C1CCN(CCCOc2ccccc2)CC1 (stereo unspecified)	0.7%	-6	-9	-18	1.2	-4.7
Cc1[nH]c2c(ccc3ccccc32)c1C1C(CCN)C1(C)C (stereo unspecified)	-1.8%	?	-25	-2	0.1	-3.1
COc1ccc(C(=O)c2ccc(OC)c(OC)c2)cc1	?	7	12	6	0.3	1.3
O=C(Nc1cccc(S(=O)(=O)N2CCCCCC2)c1)c1ccc2ccccc2n1	0.4%	-13	-1	-9	0.8	-5.9
COc1ccc(CNC(=O)CN(Cc2ccccc2)C(=O)CCC(=O)Nc2nccs2)cc1	0.1%	2	22	-6	-1.6	-2.0
CC(=O)N1CCC2(CC1)CC(=O)c1cc(OCC(=O)N3CCOCC3)ccc1O2	-0.1%	4	/	5	0.6	4.5
CC(=O)Oc1ccc(C(=O)Nc2nnc(C)s2)cc1	1.9%	3	-1	-11	-0.5	-3.5
Cc1ccc(N(C(=O)c2cc3ccccc3oc2=O)C2C=CS(=O)(=O)C2)cc1 (stereo unspecified)	1.5%	-6	-13	-4	0.4	-2.7
FC(F)(F)c1cc(Cl)c2nc(-c3ccccc3)c(Cc3cccc(Cl)c3)n2c1	3.4%	0	4	/	0.7	/
Cn1cnc(S(=O)(=O)Nc2ccc(Cl)c(C(F)(F)F)c2)c1	1.8%	12	-4	-11	-0.4	0.9
Cc1cc(OCC(=O)OCC(=O)NCc2ccc3c(c2)OCO3)ccc1Cl	-1.1%	-2	3	-1	-0.8	-0.8
COc1ccnc(Oc2ccc(F)cc2)c1C#N	2.6%	7	8	-1	0.0	0.7
CC(C)(C)OC(=O)CN1C(=O)NC2(CCCc3ccccc32)C1=O (stereo unspecified)	1.6%	6	-15	-2	-0.1	-5.2
Cn1cc(Br)c(C(=O)N2CCCCCC2)n1	0.0%	5	-10	-4	-0.3	-2.0
Cc1ccc2sc(NNC(=O)C3COc4ccccc4O3)nc2c1C (stereo unspecified)	3.8%	-12	1	-15	-1.2	-9.5
Brc1ccc(-c2cn3ccccc3n2)s1	-1.8%	14	0	2	0.9	0.8
COc1ccc(C=CC(C)=NNC(=O)c2ccncc2)cc1	1.5%	23	0	-22	-0.5	5.3
COc1cccc(-n2nnc3c(=O)n(CC(=O)OCc4ccccc4)cnc32)c1	/	5	0	5	2.3	2.4
COc1ccc(-c2cc(C)no2)cc1S(=O)(=O)N1CCN(c2ccccn2)CC1	1.3%	-12	-20	-7	-0.5	-2.1
CC(=O)Nc1ccc(/C=N/NC(=O)c2cc(-c3ccco3)nc3ccccc23)cc1	2.6%	-9	-6	0	-0.4	-4.0
Cc1ccc(-c2noc(CCC(=O)Nc3ccccc3N3CCN(C)CC3)n2)cc1	6.2%	1	-13	-42	2.5	0.0
O=C(NC(=S)Nc1nc2c(s1)CCCC2)c1ccc(C(=O)c2ccccc2)cc1	0.1%	9	-6	7	-0.2	-3.8
Cc1sc2nc(SCC(=O)NCc3ccco3)n(-c3ccccc3)c(=O)c2c1C	/	3	4	2	0.2	0.1
COC(=O)c1cc(NC(=O)c2c(Cl)cnn2C)cc(C(=O)OC)c1	3.9%	16	22	-3	0.0	-0.2
COc1ccc(C(=O)NNC(=O)c2cnccn2)cc1[N+](=O)[O-]	/	-13	-7	-11	0.0	4.8
CCOc1ccc(OCCNC(=O)c2cc(C3CC3)nc3c2cnn3C(C)C)cc1	?	1	6	-24	2.8	-1.0
CCCNC(=O)c1cc2c(c(-c3cccc(-c4cc5ccccc5o4)c3)n1)[C@H](CCO)N(C(=O)NC(C)C)C2	0.5%	?	-7	/	0.0	/
FC(F)(F)c1nnc2n1N=C(c1ccccc1)CS2	-1.8%	7	6	-7	0.7	-1.6
CC1(C)Cc2c(sc3c2c(=N)n(Cc2ccco2)c(=O)n3Cc2ccc(Cl)cc2)CO1	-0.6%	-10	0	6	2.9	3.0
COc1ccc(Br)cc1/C=N/NC(=O)c1cc(OC)c(OC)c(OC)c1	6.3%	-27	-21	-31	-0.7	-0.8
CCN(CC(=O)Nc1ccc2c(c1)OCO2)CC(=O)Nc1ccccc1C(F)(F)F	-0.5%	0	-4	-4	1.0	4.4
CC(C)Cc1nnc(NC(=O)c2cccc(S(=O)(=O)N3CCN(C)CC3)c2)s1	1.6%	0	9	-33	-0.2	-4.2
COC(=O)c1cccc(NC(=O)c2ccc(OC)c(Cl)c2)c1	-0.5%	5	1	-3	0.3	5.0
COc1cccc(CNC(=O)C2CCCN(S(C)(=O)=O)C2)c1 (stereo unspecified)	-0.1%[38.3 µM]	-5	-18	-6	0.2	-1.8
CCCCNC(C(=O)Nc1ccc(Cl)c([N+](=O)[O-])c1)c1ccccc1 (stereo unspecified)	?	-2	-11	-26	0.9	0.9
CCOc1ccccc1NC(=O)C1CCCCN1S(=O)(=O)c1ccc(F)cc1 (stereo unspecified)	?	2	2	-11	2.9	-1.0

Another view of 3 compounds above.
CC1(C)Cc2c(sc3c2c(=N)n(Cc2ccco2)c(=O)n3Cc2ccc(Cl)cc2)CO1
  PINK1 expr mod: -0.6% | Six1-Eya2 blk: -10 | CtBP-E1A blk: 0 | D2 PAM: 6 | TRPML1 ag: 2.9 | D2 ag: 3.0

CCCCNC(C(=O)Nc1ccc(Cl)c([N+](=O)[O-])c1)c1ccccc1 (stereo unspecified)
  PINK1 expr mod: ? | Six1-Eya2 blk: -2 | CtBP-E1A blk: -11 | D2 PAM: -26 | TRPML1 ag: 0.9 | D2 ag: 0.9

CCOc1ccccc1NC(=O)C1CCCCN1S(=O)(=O)c1ccc(F)cc1 (stereo unspecified)
  PINK1 expr mod: ? | Six1-Eya2 blk: 2 | CtBP-E1A blk: 2 | D2 PAM: -11 | TRPML1 ag: 2.9 | D2 ag: -1.0

Further results.
SMILES	PINK1 expr mod	Six1-Eya2 blk	CtBP-E1A blk	D2 PAM	TRPML1 ag	D2 ag
Oc1cccc(C(=S)N2CCCCC2)c1	-0.2%	-2	/	-2	-0.4	0.4
Cc1noc(C)c1COc1ccccc1C(=O)N(C)CC(=O)Nc1ccc(F)cc1	-0.6%	1	-16	-7	-0.2	-1.1
O=C(NCCCNc1ccnc2cc(Cl)ccc12)c1ccccc1F	4.1%	-13	/	-8	-0.2	1.9
COc1ccccc1-c1nc2cc3ccccc3cc2nc1-c1ccccc1OC	4.0%	3	2	-2	-0.5	0.7
O=C(c1cc(COc2cccc3cccnc23)on1)N1CCC[C@H]1CO	-0.4%	-1	-2	-2	-0.2	-2.3
CC(C)(C)c1csc(CS(=O)(=O)c2ccccn2)n1	0.9%	10	/	-17	-0.6	-3.6
COc1ccc(S(=O)(=O)NCc2cccs2)cc1	?	-6	-4	-5	-1.0	-2.2
OCC(CO)(CO)n1cnnn1	1.0%	6	-1	-1	0.0	-0.7
O=C1NCCN/C1=C\C(=O)c1ccc(Cl)cc1	1.7%	1	8	-16	1.0	2.7
COc1ccc(NC(=O)c2ccco2)cc1NC(=O)c1cc2ccccc2o1	2.9%	-4	2	-20	2.2	-2.9
O=C(Nc1ccc2c(c1)OCO2)C1CC(=O)N(CCc2ccccc2)C1 (stereo unspecified)	1.2%	1	-2	-4	-0.3	-2.3
CSc1ccc(C(O)c2ncc(-c3ccccc3F)[nH]2)cc1 (stereo unspecified)	0.3%	-20	-24	-11	-1.2	-4.5
O=C(NC1CCCCC1)c1ccc(CN2CCOCC2)cc1	2.1%	4	3	-1	0.4	-2.5
COC(=O)CC(NC(=O)c1ccc(C)cc1)c1ccc2c(c1)OCO2 (stereo unspecified)	-1.1%	-3	5	-16	-0.8	-2.9
CCSc1nc(C(F)(F)F)cc(=O)n1-c1ccccc1	0.8%	4	10	11	3.7	0.5
CCN(CC)S(=O)(=O)c1ccc(N2CCCC2)c(NC(=O)c2nn(C)c(=O)c3ccccc23)c1	0.1%	-17	/	0	-0.3	-0.1
CCOc1ccc(C(=O)NCC(=O)NCC(c2ccco2)N2CCCCC2)cc1OCC (stereo unspecified)	-1.0%	8	2	-12	0.9	-1.4
Cc1ccc2c(c1)NC(=O)CC(c1ccccc1)=N2	-0.8%	-2	9	-8	-0.1	-4.2
Cc1ccn2c(=O)nc(SCC(=O)NC3CCCCC3)nc2c1	-2.9%	4	5	-18	0.4	-0.6
Cc1ccc(-c2ccc(SCC(=O)Nc3nonc3C)nn2)cc1	6.6%[38.3 µM]	-3	-4	0	3.0	-2.5

Four compounds from above, limited to TRPML1 ag, PINK1 expr mod and CtBP-E1A blk.
SMILES,TRPML1 ag,PINK1 expr mod,CtBP-E1A blk
CCN(CC(=O)Nc1ccc2c(c1)OCO2)CC(=O)Nc1ccccc1C(F)(F)F,1.0,-0.5%,-4
CC(C)Cc1nnc(NC(=O)c2cccc(S(=O)(=O)N3CCN(C)CC3)c2)s1,-0.2,1.6%,9
COC(=O)c1cccc(NC(=O)c2ccc(OC)c(Cl)c2)c1,0.3,-0.5%,1
COc1cccc(CNC(=O)C2CCCN(S(C)(=O)=O)C2)c1 (stereo unspecified),0.2,-0.1%[38.3 µM],-18

Three entries out of the list above, sorted by the number in PINK1 expr mod, highest first.
Compound | PINK1 expr mod
O=C(NC1CCCCC1)c1ccc(CN2CCOCC2)cc1 | 2.1%
Cc1ccc2c(c1)NC(=O)CC(c1ccccc1)=N2 | -0.8%
Cc1ccn2c(=O)nc(SCC(=O)NC3CCCCC3)nc2c1 | -2.9%

Compounds were not picked by outcome. Share with any hit: about 1.3%.
